Vaccinia mCherry = vaccinia inhibition (mCherry reporter) | Vaccinia virus mCherry reporter infection, fluorescence; about a quarter of the inactives have no number | hit rate 0.63% among 310,000 | Potency, µM (doses to about 36.5 µM), for inactives: at the top dose activity change, negative = inhibition, most hits filed as inhibitors; active = well fitted inhibition curve with a large enough effect; inconclusive = small, poorly fitted or top-dose-only effect; inactive = no such curve, though single readings can be large or run the other way; tested in A549 cells; also: nearly all actives have a fitted effect of over 35% in size; inactives centre near -10
Vaccinia Venus = vaccinia inhibition (Venus reporter). hit rate 0.46% among 330,000. Vaccinia virus Venus reporter expression, fluorescence. Potency, µM (series often up to 36.5 µM), without a hit: at the top dose activity change, negative = inhibition, hits mostly inhibitors. AID 720580; active means well fitted inhibition curve with a large enough effect; inconclusive means small, poorly fitted or top-dose-only effect; inactive means no such curve, though single readings can be large or run the other way; tested in A549 cells; also: nearly all actives have a fitted effect of over 30% in size; inactives centre near -10
Numbers without * were called inactive; i = inactive; u = inconclusive; x = no result given; & = joins results of further samples; [ ] = dose if it differs, or a comment. % is scaled to controls: 0 for no effect and ±100 for the full control effect; potency is read from the fitted curve at half-maximal effect. Hits appear at their usual frequency (roughly 0.86% active in at least one column).

SMILES	Vaccinia mCherry	Vaccinia Venus
CC(=O)Nc1ccc(S(=O)(=O)NC(CC(=O)O)c2ccc(OC(C)C)cc2)cc1 (stereo not drawn)	-11%	-12%
O=C1c2ccccc2C(=O)N1n1cccc1	i	0%
O=C(CSc1nnc2sc3ccccc3n12)c1ccco1	-9%	-15%
CNC(=O)NC(=O)C(OC(=O)Cc1cccc(C(F)(F)F)c1)c1ccccc1 (stereo not drawn)	-24%	-12%
O=S(=O)(NCc1ccco1)c1ccc(Cl)s1	-27%	-4%
COc1cc(OC)c(N(C)C(=O)CCNC(=O)Cn2cnc3ccccc3c2=O)cc1Cl	-24%&-1%	-13%&-11%
CCOc1ccccc1N1CCN(c2nc3ccccc3nc2C(C#N)C(=O)OC)CC1 (stereo not drawn)	x	10%
COc1ccccc1N1CCN(C2CCN(C(=O)COc3ccccc3)CC2)CC1	i	4%
Cn1nc(OCC(N)=O)ccc1=O	-6%	-6%
CC(C)(C)OC(=O)NCCCCCc1cn([C@@H](CO)C(=O)NCCCCCCCCCCC(=O)N2CCN(C(=O)OC(C)(C)C)CC2)nn1	u	u
O=C(NCc1ccccc1F)C(=O)NCC(c1cccs1)S(=O)(=O)c1cccs1 (stereo not drawn)	-13%	-7%
NC(=O)c1ccc(N2CCCCC2)c(N2C(=O)CCC2=O)c1	-13%	3%
CCOC(=O)c1cnc2ccccc2c1NCCc1ccc(OC)c(OC)c1	-17%	-14%
CC1CC1C(=O)N(CCC1=CCCCC1)c1c(N)n(Cc2ccccc2)c(=O)[nH]c1=O (stereo not drawn)	-18%	-11%
COc1ccccc1S(=O)(=O)N(C)C[C@@H]1OCc2cnnn2CCCC(=O)N([C@H](C)CO)C[C@H]1C	i	0%
CCOC(=O)C1(c2ccccc2)CCN(CCC(C#N)(c2ccccc2)c2ccccc2)CC1	-5%	-17%
Cc1ccc(CC(=O)N2CCN(c3cccc(C(F)(F)F)c3)CC2)cc1	x	-13%
CCOc1ccc(NCC(=O)Nc2ccc(C)cc2C)cc1	0%	-15%
C[N+](C)(C)CCNC(=O)c1c[nH]c2ccccc12	20%	13%
Cc1ccc(NC(=O)C2(NC(=O)c3ccccn3)CCCCC2)cc1Br	-27%	u
Cc1cc(NC(=O)COC(=O)C2CCN(S(=O)(=O)c3cccc(Cl)c3Cl)CC2)no1	u	-8%
COc1ccc2oc(C(F)(F)C(F)F)cc(=O)c2c1	x	-2%
COc1ccc2c(c1)c(N1CCCC1=O)c(C(=O)Nc1ccccc1C(F)(F)F)n2C	2%	14%
O=C(NCC1CCCO1)C(c1cccnc1)N(C(=O)Cc1cccs1)c1cccnc1 (stereo not drawn)	i	-9%
O=C(Nc1ccc(N2C(=O)CCC2=O)cc1Cl)c1cccs1	-10%	-8%
COC(=O)c1ccc(NC(=O)c2ccccc2N(C)S(=O)(=O)c2ccccc2)cc1	-18%	-9%
Cc1ccc(-n2c(=O)c3c(cnn3C)n(CC(=O)Nc3ccc(C)cc3C)c2=O)cc1	-3%	-10%
COCCN(C(=S)Nc1ccc(OC)cc1)C(C)c1cccs1 (stereo not drawn)	i	-12%
COc1ccc(CCCc2nnc(SCC(=O)Nc3cccc(C)c3)o2)cc1C	-14%	2%
Cc1sc(NC(=O)CSc2nnc(COc3ccccc3)n2C)c(C#N)c1C	-26%	-18%
Cc1ccccc1Cn1c(=O)n(Cc2ccc3c(c2)OCO3)c(=O)c2oc3ccccc3c21	-8%	-6%
COc1cccc(CNC(=O)COC(=O)CN(C)S(=O)(=O)c2ccc(NC(C)=O)cc2)c1	-12%	-13%
CC1=C(C)/C(=N\OC(=O)/C=C/c2ccccc2)C=CC1=O	-5%	3%
O=C(c1ccc(COc2ccc(Br)cc2)o1)N1N=C(C(F)F)CC1(O)C(F)F (stereo not drawn)	u	u
CCOc1ccccc1OCC(=O)NC1CCSc2ccccc21 (stereo not drawn)	-4%	-18%
CC(C)C(C=Cc1ccccc1)=NNS(=O)(=O)c1ccccc1	i	9%
CC(C)OC(=O)c1c(NC(=O)COc2cccc(Br)c2)sc2c1CCCC2	-4%	12%
CCc1ccc(S(=O)(=O)c2nnn3c2nc(Nc2ccc(F)cc2)c2cc(Cl)ccc23)cc1	u	u
COc1cc(-c2nc3cnccn3c2Nc2ccccc2)ccc1O	u	-26%
COc1ccc2oc(-c3ccncc3)cc(=O)c2c1	-12%	-3%
COc1cccc(CNC(=O)CC(NC(=O)c2ccccc2)c2ccccc2)c1 (stereo not drawn)	-7%	-28%
CCN(Cc1ccccc1)C(=O)Cn1c(=O)n(-c2ccc(Cl)c(Cl)c2)c(=O)c2c(C)c(C(=O)N(C)C)sc21	-8%	-4%
CN1CCN(C(c2ccccc2Cl)c2sc3nc(-c4ccco4)nn3c2O)CC1 (stereo not drawn)	i	-5%
C=C(C)Cn1c(CCNC(=O)CC)nc2ccccc21	-24%	-15%
COc1ccccc1N1CCN(C(CNC(=O)C(=O)NCc2cccnc2)c2cccnc2)CC1 (stereo not drawn)	-11%	-16%
O=C(Cn1cc(COc2ccc3ccccc3c2)nn1)NS(=O)(=O)c1cccc(OC(F)F)c1	44%[activator]	-3%
COc1cccc(N=NC2C(=O)N(C(N)=S)N=C2C)c1 (stereo not drawn)	u	-27%
COc1ccc(N(CC(=O)NC2CCCC2)S(=O)(=O)c2c(C)[nH]c(=O)[nH]c2=O)cc1	i	-10%
COCCSc1ccccc1C(=O)NCc1ccc2c(c1)OCO2	-16%	u
CCOc1ccccc1C=NN1CCCCCC1	-9%	4%
O=C(NCCC1=CCCCC1)c1ccc2c(c1)N(Cc1ccc(F)cc1)C(=O)c1ccccc1S2(=O)=O	-4%	-16%
O=c1[nH]c2cccc(F)c2n2cccc12	-1%	-19%
CC(=O)Nc1ccc(N=Nc2ccccc2)cc1	-27%	-11%
COc1ccc(/C=C(/NC(=O)c2ccc(C)cc2)C(=O)NCc2ccncc2)cc1	i	-11%
O=S(=O)(c1ccc(OCC(O)CN2CCc3ccccc3C2)cc1)N1CCOCC1 (stereo not drawn)	i	-13%
CCOC(=O)c1oc2ccccc2c1NC(=O)c1cccc(OC)c1OC	u	-22%
Cc1onc(-c2ccccc2)c1C(=O)N1CCN(C/C=C/c2ccccc2)CC1	u	-19%
COc1ccc(CNC(=O)C2CCN(S(=O)(=O)c3cn(C)cn3)CC2)cc1	-16%	-8%
CCOC(=O)NC(=O)COC(=O)CCCSc1nc2ccccc2s1	4%	-8%
CCc1cccc(C)c1NC(=O)COC(=O)CNC(=O)c1cccs1	-8%	-8%
Later entries
SMILES	Vaccinia mCherry	Vaccinia Venus
CCOc1ccc(S(=O)(=O)N2CCCC(C(=O)Nc3cccc(C)c3)C2)cc1 (stereo not drawn)	i	-10%
CC(C)C(=O)Nc1ccccc1C(=O)OCc1cc(=O)n2nc(C3CC3)sc2n1	-13%	6%
O=c1cc(-c2cccc(Cl)c2)oc2cccc(O)c12	-3%	-25%
COc1cccc(Nc2ncnc3ccc(Br)cc23)c1	-23%	u
COc1ccc(S(=O)(=O)N2CCN(c3ccccc3)CC2)cc1C(=O)N1CCCC1	-7%	-17%
CC(C)Cn1c(N)c(S(=O)(=O)c2cccs2)c2nc3ccccc3nc21	x	u
CCc1ccc2[nH]cc(C(=O)OCCOC)c(=O)c2c1	-13%	-7%
CCOC(=O)N1CCN(C(=S)NC(=O)c2ccc(Br)cc2)CC1	i	-7%
O=C(/C=C/c1ccc(Cl)cc1Cl)Nc1ccncc1	-27%	-20%
ClCCN1CCSCC1	-6%	-2%
COc1ccccc1OCC(=O)N(Cc1nc(-c2ccc(Cl)cc2)no1)C(C)C	i	-26%
O=[N+]([O-])C1=CC=C2C(=NC3(CCCCC3)N2O)C1=NCCO	-13%	-16%
CC(=O)Nc1ccc(NC(=O)C(C)OC(=O)/C=C/c2cccs2)cc1 (stereo not drawn)	i	-9%
COc1cc(/C=C/C(=O)NC(C)CCc2ccccc2)cc(OC)c1OC (stereo not drawn)	0%	-24%
O=C(COC(=O)c1cccnc1Cl)Nc1cccc(S(=O)(=O)N2CCCCC2)c1	-15%	-5%
O=C(CN1C(=O)NC2(CCCC2)C1=O)OCC(=O)c1cccc(Cl)c1	i	2%
CC(C)NS(=O)(=O)c1ccc(OCC(=O)Nc2ccc3c(c2)OCCO3)cc1	i	-18%
CCCCNS(=O)(=O)c1ccc(S(=O)(=O)n2cnc3ccccc32)cc1	-9%	-2%
O=[N+]([O-])c1cc(-n2cccc2)ccc1N1CCOCC1	i	2%
Cc1ccc(NS(=O)(=O)c2c(C)[nH]c(=O)[nH]c2=O)cc1C	-15%	-9%
CCOc1nc(-c2ccc(C)cc2)ccc1-c1noc(COC)n1	-16%	-5%
Cc1cccc(NC(=O)CCS(=O)(=O)c2cccc3nonc23)c1C	-7%	-10%
Cc1cc2ccccc2c(=O)n1CC(=O)NCCC1=CCCCC1	i	-10%
CCN(CCO)C(=O)c1ccc2nc(Cc3ccc(OC)cc3)oc2c1	i	0%

A draw from above in order of count of non-hydrogen atoms, high to low:
SMILES	Vaccinia mCherry	Vaccinia Venus
COc1ccccc1S(=O)(=O)N(C)C[C@@H]1OCc2cnnn2CCCC(=O)N([C@H](C)CO)C[C@H]1C	i	0%
CCOC(=O)C1(c2ccccc2)CCN(CCC(C#N)(c2ccccc2)c2ccccc2)CC1	-5%	-17%
O=C(NCC1CCCO1)C(c1cccnc1)N(C(=O)Cc1cccs1)c1cccnc1 (stereo not drawn)	i	-9%
COc1ccc(N(CC(=O)NC2CCCC2)S(=O)(=O)c2c(C)[nH]c(=O)[nH]c2=O)cc1	i	-10%
COc1ccc(CCCc2nnc(SCC(=O)Nc3cccc(C)c3)o2)cc1C	-14%	2%
CC(C)NS(=O)(=O)c1ccc(OCC(=O)Nc2ccc3c(c2)OCCO3)cc1	i	-18%
CCOC(=O)c1oc2ccccc2c1NC(=O)c1cccc(OC)c1OC	u	-22%
CCCCNS(=O)(=O)c1ccc(S(=O)(=O)n2cnc3ccccc32)cc1	-9%	-2%
CCOC(=O)NC(=O)COC(=O)CCCSc1nc2ccccc2s1	4%	-8%
COCCSc1ccccc1C(=O)NCc1ccc2c(c1)OCO2	-16%	u
CCOC(=O)N1CCN(C(=S)NC(=O)c2ccc(Br)cc2)CC1	i	-7%
C=C(C)Cn1c(CCNC(=O)CC)nc2ccccc21	-24%	-15%
O=c1cc(-c2cccc(Cl)c2)oc2cccc(O)c12	-3%	-25%
CC(=O)Nc1ccc(N=Nc2ccccc2)cc1	-27%	-11%
Cn1nc(OCC(N)=O)ccc1=O	-6%	-6%

(list continues)
SMILES	Vaccinia mCherry	Vaccinia Venus
Cc1ccc(C2=NN(CC(=O)NCCCN(CC(C)C)CC(C)C)C(=O)CC2)cc1	-17%	-20%
C[C@@H](CN1C2=NC[C@H](Cc3ccc(O)cc3)N2C[C@H]1Cc1ccc(O)cc1)NC(=O)CCC1CCCCC1	-11%	-6%
CC(=O)Nc1ccc(S(=O)(=O)N(Cc2ccccc2)c2ccccc2)cc1	-13%	4%
CCOC(=O)c1cnn(-c2ccc(C(=O)Nc3ccc(C(C)=O)cc3)cc2)c1N	-16%	-10%
COC(=O)CCC(=O)N1CCOCCOCCOCC1	-4%	-13%
COc1ccccc1Cc1c(C2CCCCC2)nc2ccc(C)cn12	-15%	-9%
CCN1C(=O)[C@H]2[C@@H](c3ccc(C)cc3)N3C(=O)N(c4ccc(OC)cc4)C(=O)[C@@]3(C)[C@H]2C1=O	i	-5%
COc1ccccc1CNCCSc1nnnn1C	4%	-12%
COC(=O)c1c(C)[nH]c(C(=O)OC(C)C(=O)N2CCOCC2)c1C (stereo not drawn)	-15%	-7%
NP(=O)(OCC(F)(F)F)Oc1ccc(Cl)cc1 (stereo not drawn)	-12%	-9%
CC1=[N+]([O-])C(N2CCOCC2)C(O)(c2ccccc2)C1 (stereo not drawn)	x	-5%
COC(=O)C1Cc2ccccc2CN1C(=O)CCl (stereo not drawn)	-25%	u
CC(C)(C)OCC(O)CN1CCN(C(=O)c2ccccc2)CC1 (stereo not drawn)	-8%	-6%
COc1ccc(-c2nc(C)c(CCNC(=O)C(=O)Nc3ccccc3C#N)s2)cc1OC	4%	7%
Cc1ccc2ccccc2c1C(O)c1ncc(-c2ccccc2F)[nH]1 (stereo not drawn)	u	-13%
COc1cc2c(cc1OC)C(CSc1ccccc1C(=O)O)=NC(C)(C)C2	-19%	-1%
O=C(CSCc1ccc(Cl)cc1)Nc1cccc(C(=O)Nc2ccccc2C(=O)O)c1	i	-4%
C=C(C(=O)c1ccccc1)C(C)CC(=O)c1ccccc1 (stereo not drawn)	u	-25%
O=C(NCC1CCCO1)c1cccc(NC(=O)c2ccccc2)c1 (stereo not drawn)	-5%	-9%
Cc1cc(C)c(C(=O)c2ccccc2)c(C)c1	i	-14%
O=C(c1cc(COc2ccc(F)cc2Cl)on1)N1CCN(c2cnccn2)CC1	-7%	-15%
COc1ccc(OCc2cc(/C=N\NC(=O)c3ccccc3)ccc2OC)cc1	-6%	-12%
CCOc1ccc(-n2nnc3c(=O)n(CC(=O)c4ccccc4)cnc32)cc1	-9%	-10%
CC(C)C(=O)Nc1ncc(Cc2cccc(Cl)c2)s1	-14%	-17%
CC(C)C(NC(=O)c1ccccc1Cl)C(=O)OCc1nc2scc(-c3ccccc3Cl)c2c(=O)[nH]1 (stereo not drawn)	-15%	0%
Cc1cccc(C)c1NC(=O)c1oc2ccc3c(c2c1C)C(=O)CC(C)(C)O3	-4%	-2%
O=C1Cc2ccccc2Sc2ccc(O)cc21	u	-24%
CC(C)CC(c1nnnn1C(C)(C)C)N1CCN(Cc2ccccc2)CC1 (stereo not drawn)	-15%	6%
